ALR inh: inhibitors of human sulfhydryl oxidase ALR | P55789 | purified ALR, DTT oxidation, H2O2 HRP-luminol luminescence | inhibition, % (no concentration beside the values) | 290,000 compounds, 3.8% hits;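 active = mean and each replicate at 75% or more; inconclusive = only one of the two met; inactive = neither met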;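 note: stock transfer was 7.5 nL into about 7.5 µL; 0% = neutral wells and 100% = wells with inactivated enzyme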
Target sequence (P55789 whole entry, looked up): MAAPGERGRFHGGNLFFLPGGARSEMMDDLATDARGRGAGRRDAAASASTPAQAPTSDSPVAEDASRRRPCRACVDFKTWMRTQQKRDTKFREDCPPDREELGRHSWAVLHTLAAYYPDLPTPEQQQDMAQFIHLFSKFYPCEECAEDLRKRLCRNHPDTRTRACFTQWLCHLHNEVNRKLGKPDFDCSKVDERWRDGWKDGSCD
Beta cell apopt: beta cell apoptosis inhibition; protection from apoptosis, % (test concentration not listed); AID 435005; 300,000 compounds, 0.8% hits; INS-1E cytokine-induced death, ATP luminescence, 48 h; percent of positive-control rescue, neutral wells zero;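 active = all replicates at 75% or more, or half of them and the mean; inconclusive = half reach 75% but not the mean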;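 note: 0% = cytokine-treated negative control wells and 100% = positive control rescue; higher means more ATP so stronger rescue from cytokine killing; wells of about 40 µL received 100 nL stock; the first replicate is given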
A1 inh: inhibitors of the anti-apoptotic protein A1, read as caspase activation; MEF A1-2A-BIM cells, Caspase-Glo 3/7 luminescence, 3 h; percent of clofoctol response, vehicle zero; caspase activation, % (no concentration beside the values); 330,000 compounds, 0.066% hits; AID 2462;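 active = over half of replicate activation scores above 10%, or exactly half above 10 with the replicate mean above 10; inconclusive = replicate mean below 10 yet half the replicates above 10; inactive = over half of replicates below 10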;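 note: wells of about 30 µL received 50 nL stock; many hits fall short of the cut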
T cruzi repl: T. cruzi replication inhibition; T. cruzi beta-gal in NIH3T3, luminescence, 90 h; inhibition, % (test concentration not listed); 300,000 compounds, 1.4% hits;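 active = mean inhibition across valid replicates above about 55%, limit read from the data; inconclusive = mean below that limit but half or more replicates reach it; inactive = mean below it, under half of replicates reach it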;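 note: signal also drops with host cell toxicity which is not excluded here; 0% = plate median of DMSO wells and 100% = zero luminescence signal; higher percent means less beta-gal luminescence so fewer parasites; stock transfer was 50 nL into about 50 µL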
Ecoli rRNA inh: inhibits bacterial ribosomal RNA function over humanized ribosomes; 350,000 compounds, 1.6% hits; E. coli WT GFP vs humanized-ribosome RFP mutants, fluorescence, 24 h; active compounds read low; DMSO median 0, no signal -100; AID 720706; GFP signal change (wild-type ribosome), % (test concentration not listed);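 active = significant combined selectivity score with lowered wild-type GFP, culture density cut under 30%, mutant RFP and density less affected; inactive = any of these conditions unmet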; note: one replicate is shown; some compounds called inactive have numbers as strong as hits
LANA-H2B inh: blocks KSHV LANA binding to histone H2A/H2B; cell-free LANA-H2A/H2B peptide, fluorescence polarization; inhibition, % (test concentration not listed); 320,000 compounds, 0.6% hits; AID 2629; in the data active = inhibition mostly above about 10%, no sharp cut-off; inactive = mostly below about 6.7%;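 note: stock transfer was 7.5 nL into about 10 µL; 0% = median of vehicle wells and 100% = median of positive control wells; one replicate is shown; the record names a cut of 25% in any replicate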
Calb FLC: C. albicans growth modulation with fluconazole. 300,000 compounds, 0.57% hits. growth inhibition, % (test concentration not listed). C. albicans CaCi-2 (fluconazole-resistant clinical isolate) + fluconazole, Alamar Blue growth, 48 h. AID 1979;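 active = most replicates above 75%; inconclusive = exactly half above 75%; inactive = most below 75%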;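 note: all wells also contain fluconazole at 8 µg/ml as a sub-toxic cotreatment; 0% = median of DMSO wells and 100% = median of geldanamycin control wells; wells of about 8 µL received 7.5 nL stock; the first replicate is given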
B2AR ag: human beta-2 adrenergic receptor agonism by FAP | P07550 | Am2.2-beta2AR cells, FAP receptor internalization, flow cytometry; reference of the scale not given here | response, % (no concentration beside the values) | 340,000 compounds, 0.43% hits | AID 504454;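 active = response above a set limit, near 3 SD of response in nonfluorescent compounds, cut at about 42% in these data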;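 note: stock transfer was 100 nL into about 11 µL; a reference agonist was the positive control; negative values mostly stem from fluorescent compounds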
Target sequence (P07550 whole entry, looked up): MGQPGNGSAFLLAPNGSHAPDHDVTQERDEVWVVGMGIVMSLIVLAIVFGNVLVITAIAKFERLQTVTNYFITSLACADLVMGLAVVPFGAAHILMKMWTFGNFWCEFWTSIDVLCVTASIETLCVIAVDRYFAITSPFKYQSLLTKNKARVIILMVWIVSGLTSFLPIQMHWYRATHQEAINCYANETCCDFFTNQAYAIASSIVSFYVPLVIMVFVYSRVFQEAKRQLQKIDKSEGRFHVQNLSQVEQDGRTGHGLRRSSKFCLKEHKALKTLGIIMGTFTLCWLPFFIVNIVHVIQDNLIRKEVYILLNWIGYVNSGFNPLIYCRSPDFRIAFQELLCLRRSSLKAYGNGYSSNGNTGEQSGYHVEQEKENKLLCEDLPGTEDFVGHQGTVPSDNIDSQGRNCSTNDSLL
Ecoli rRNA inh OD600: further read-out of Ecoli rRNA inh, marked with its call; OD600 change, %; measured here: OD600 growth;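 optical density of the mix in the first replicate; 0 = DMSO median and -100 = no signal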
Ecoli rRNA inh RFP: further read-out of Ecoli rRNA inh, marked with its call; RFP signal change, %; measured here: RFP humanized mutant strains;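 first replicate; 0 = DMSO median and -100 = no signal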
Active calls of the source: *; ? = inconclusive; / = no result given; & = joins results of further samples.

Results follow in this order: ALR inh	Beta cell apopt	A1 inh	T cruzi repl	Ecoli rRNA inh	Ecoli rRNA inh OD600	Ecoli rRNA inh RFP	LANA-H2B inh	Calb FLC	B2AR ag
O=C(Cn1c(=O)n(-c2ccccc2)c(=O)n1CC(=O)N1CCCCC1)N1CCCCC1
→ -21	-1	0.7	-25	/	/	/	-5.4	31	-2
Cc1cc(C)c(C2=CC(c3ccccc3)n3ncnc3N2)cc1C (stereo not drawn)
→ 13	-4	0.5	-12	/	/	/	-2.4	-25	/
COc1ccc(CSCC(=O)Nc2ccccc2SC)cc1
→ 63	-8	1.2	-2	-16	-24	-14	-1.6	27	11
COc1cccc(-c2nnn(CCc3nn[nH]n3)n2)c1
→ 0	/	-0.7	-6	/	/	/	2.5	0	-6
O=C1CC(NCc2ccncc2)C(=O)N1c1ccccc1 (stereo not drawn)
→ 1	-13	0.0	6	/	/	/	7.5	12	1
N/C(Cc1cccc2ccccc12)=N\OC(=O)c1ccc2c(c1)OCO2
→ -6	-2	-0.1	54	-6	-3	21	-1.9	-13	-1
CN1C(c2ccc(F)cc2)=CS/C1=C(/C#N)c1nnc(N2CCOCC2)n1-c1ccccc1
→ 98*	2	-0.8	21	2	0	-0.7	5.7	1	-3
O=C(O)/C=C/c1ccc2c(c1)OCCO2
→ 2	3	0.5	-3	-4	-10	-6.7	7.5	-2	-6
Cc1ccc(C(=O)N2CCN(c3ncnc4c(C)csc34)CC2)cc1
→ -2	2	-0.2	-20	-17	-24	-0.2	7.2	27	-7
O=C(CN(C(=O)c1csnn1)c1ccccc1C(F)(F)F)NCc1ccccc1
→ /	-2	-0.2	0	-8	0	-1.9	4.3	0	2
O=C1CN(C(=O)NCC(=O)N[C@@H](C(=O)O)c2ccccc2)c2ccccc2N1
→ 0	-4	0.2	-4	5	9	-2.7	5.3	/	0
CCOc1ccc(C2Nc3ccccc3NC3=C2C(=O)CC(C)(C)C3)cc1OC (stereo not drawn)
→ 98*	-2	1.4	12	6	-9	67	1.5	-3	2
CNS(=O)(=O)c1cccc(C(=O)OCC(=O)Nc2ccccc2OC(F)F)c1
→ -3	-1	-0.1	-17	/	/	/	14	8	7
COC(=O)c1[nH]c2ccccc2c1NS(=O)(=O)c1ccc(F)c(C)c1
→ 18	3	1.5	-5	/	/	/	-1.6	12	0
Fc1ccc(-c2nnn(Cc3nc4ccccc4s3)n2)cc1
→ -12	4	0.4	-11	/	/	/	-10	-10	-8
CCn1c(C)c(C(C)=O)c(N2CCN(c3cccc(Cl)c3)CC2)nc1=S
→ 25	0	-1.0	-3	/	/	/	-2.9	2	-11
Cc1nc(OCC(C)C)c2sc3nc4c(cc3c2n1)COC(C)(C)C4
→ /	3	0.4	4	6	15	-0.4	8.6	4	-15
COc1ccc(C2CC(=O)NC(=O)C2)cc1
→ -11	0	0.8	1	12	18	-1.3	-3.7	-2	1
COc1ccc(-n2c(SCC(=O)Nc3cc(C)on3)nc3c([nH]c4ccccc43)c2=O)cc1
→ -6	/	0.4	10	10	9	2.3	-3.5	-7	2
COC(=O)C1=COC(C)C2CN3CCc4c([nH]c5cc(OC)c(OC)cc45)C3CC12 (stereo not drawn)
→ 17	0	0.5	8	/	/	/	13	-4	-27
Cc1nnc(SCC(=O)Nc2ccccc2)n1CCc1ccccc1
→ 3	-4	0.9	1	-8	-1	-7.3	-0.8	8	-15
Cn1c(SCC(=O)Nc2ccccc2F)nnc1C1CCCCC1
→ -10	/	-0.7	0	9	6	0.4	0.1	-4	-1
COc1ccc(-c2cc(=O)oc3c(C)c(OCc4nn[nH]n4)ccc23)cc1
→ -18	-6	2.2	5	/	/	/	0.2	56	-12
O=C(Nc1ccc(N2CCCC2)cc1)C(c1ccccc1)c1ccccc1
→ -7	0	0.7	43	/	/	/	1.1	1	-2
O=C1CNC(=O)N1
→ 16	0	1.6	-7	/	/	/	-1.6	-2	10
CCOC(=O)C1CCCN(C(=O)C2c3ccccc3Oc3ccccc32)C1 (stereo not drawn)
→ -8	1	-0.1	-3	/	/	/	71*	14	3
CN(CC(=O)Nc1ccc(Cl)c(C(F)(F)F)c1)C(=O)COC(=O)C1CC2CCCC(C1)C2=O (stereo not drawn)
→ -2	-2	1.7	/	-45	-65	-5.8	-0.9	/	-2
O=C(N/N=C/C1CC=CCC1)c1cc(-c2cccnc2)nc2ccccc12 (stereo not drawn)
→ -15	2	0.4	4	7	5	0.7	7.8	6	-25
Cc1ccc(S(=O)(=O)N2CCN(C(=O)CN3CCOCC3)C2c2ccccc2)cc1 (stereo not drawn)
→ -8	-6	0.2	8	/	/	/	1.2	-1	14
COc1ccc(C(=O)ON=C2CCN(c3ccc([N+](=O)[O-])cc3)CC2)cc1
→ /	-1	0.2	-3	/	/	/	-4.0	0	8
CCOC(=O)C1(Cc2ccc(OC)cc2)CCN(C(=O)CCn2ccc(C)n2)CC1
→ -1	-11	0.4	6	1	-3	-1.1	6.6	-2	-2
COCCOc1cc(NC(=O)c2sccc2Oc2ccc([N+](=O)[O-])cc2F)c(Cl)cc1Cl
→ -3	/	-0.9	37	/	/	/	1.3	-9	7
O=C(Nc1ccc(Cl)c(-c2nc3ccccc3[nH]2)c1)c1cccnc1
→ 11	8	0.5	-6	/	/	/	-2.7	8	8
S=c1[nH]nc(Cc2ccc(Cl)cc2)o1
→ 42	-14	-1.4	20	-5	1	-1.2	2.4	-3	1
CC(=O)Oc1ccccc1C(=O)OCCN=C1NS(=O)(=O)c2ccccc21
→ -18	-5	0.4	-2	6	6	20	-0.5	-3	4
CCOc1ccc(N(CC(=O)OC)S(=O)(=O)c2ccc3c(c2)n(C)c(=O)c(=O)n3C)cc1
→ -31	1	1.2	8	0	5	0.9	2.9	9	-17
COc1cccc(C(=O)NCC2(c3ccccc3)CCCC2)c1OC
→ -2	2	-0.8	-6	-40	-65	-7.0	1.4	8	-9
CN(C(=O)COC(=O)c1ccccc1OCc1ccc(F)cc1)C1CCS(=O)(=O)C1 (stereo not drawn)
→ -2	0	0.1	/	-1	-5	-0.3	-3.9	/	17
COc1ccccc1CNC(=O)C1CCCN(S(=O)(=O)c2cccc3cccnc23)C1 (stereo not drawn)
→ -9	-8	-0.3	11	-3	-1	-1.1	138*	-18	-3
CCOC(=O)Nc1ccc2c(c1)N(C(=O)OCCN(C)C)c1ccccc1CC2
→ -17&-28	-4&-6	1.2&1.0	-12&-12	4&5	1&10	0.0&2.4	-1.6&-0.4	-8&-12	4&3
Cc1cc(F)ccc1NC(=O)c1cc(S(=O)(=O)N2CCc3ccccc32)cn1C
→ -6	0	-0.7	21	2	3	3.4	-3.4	-1	-7
CC(C)c1nnc(NC(=O)c2cc3ccccc3o2)s1
→ -2	-13	-2.3	-2	9	10	-1.9	1.7	4	3
Cc1cc(SC(C)C(=O)O)nc2ccccc12 (stereo not drawn)
→ -2	-4	1.3	-11	2	-2	-2.9	-3.5	5	3
CCSc1nnc(-c2ccccc2N)c(=O)[nH]1
→ -1	-7	-0.4	-15	8	-2	2.0	1.6	-9	-7
COCc1cc(CN2CCCC(C(=O)Nc3ccc(-c4ccco4)cc3)C2)ccc1OC (stereo not drawn)
→ 1	0	-0.5	43	-2	-9	9.5	-2.9	-1	13
O=C(O)CC1SC(=Nc2ccccc2)N(c2ccccc2)C1=O (stereo not drawn)
→ -17	1	2.2	/	/	/	/	2.1	0	-1
O=C(c1cccc(S(=O)(=O)N2CCCC2)c1)N1CCN(c2ccccc2)CC1
→ 62	-2	-0.6	2	/	/	/	0.6	?	-6
COc1ccccc1CNC(=O)[C@H](CCSC)NC(=O)[C@@H]1Cc2ccccc2CN1
→ /	6	1.2	0	5	15	3.5	1.4	-6	1
Cc1cc(F)ccc1S(=O)(=O)Nc1c(C)n(C)n(-c2ccccc2)c1=O
→ 0	0	-0.4	-6	3	2	-1.5	-1.5	4	12
Cc1ccc(CN2CCC(c3nc4ccc(Cl)cc4[nH]3)CC2)cc1
→ -7	-10	0.8	41	-5	12	-2.1	-0.6	-26	3
O=C(NCCCn1ccnc1)c1ccc(Cl)c(S(=O)(=O)N2CCOCC2)c1
→ 5	-2	0.2	-12	4	-4	-4.5	0.8	-7	5
Cc1ccc(NC(=O)COc2ccc(/C=C3/NC(=O)NC3=O)cc2)cc1
→ 12	-3	0.7	9	5	-2	-1.1	-5.8	3	8
c1ccc(-c2cnnc3ccccc23)cc1
→ -9	-3	-0.9	-5	5	1	-0.1	-1.0	9	-18
COc1ccc(OC)c(S(=O)(=O)N2CCC(C(=O)Nc3cccc(C(F)(F)F)c3)CC2)c1
→ -30	-1	-1.0	/	/	/	/	0.2	-12	-5
CN(C)S(=O)(=O)c1ccc2c(c1)C(=NNC(N)=O)c1cc(S(=O)(=O)N(C)C)ccc1-2
→ -8	7	0.7	8	0	7	-0.6	-2.3	1	2
COc1cc(CNCc2ccccc2Cl)ccc1OCC(=O)NC1CCCCC1
→ -9	2	-0.1	6	4	-3	0.5	3.0	-35	3
CCOC(=O)N1CCN(S(=O)(=O)c2ccc(OCC(=O)OC)cc2)CC1
→ -13	-6	-0.3	/	1	3	-5.2	3.6	/	4
Cn1c(=O)c2c(nc(CN3CCN(c4ccc(F)cc4)CC3)n2Cc2ccccc2F)n(C)c1=O
→ 39	1	-0.5	18	-1	16	2.9	1.7	-4	3
Cc1onc(-c2ccccc2)c1C(=O)Nc1ccc(S(=O)(=O)Nc2nccs2)cc1
→ -6	2	0.5	4	-17	-15	-1.0	2.8	-7	5

High-throughput results: PubChem, several laboratories

Not all compounds are listed. The share of hits here may be higher or lower than overall.
